TRPML1 ag = qHTS for Agonists of the Human Mucolipin Transient Receptor Potential 1 (TRPML1); TRPML1-expressing cells, Ca2+ dye fluorescence, FDSS; host cell line not named in the record; reference of the full effect not given here; activation, % (test concentration not listed); hit rate 0.12% among 410,000; in the data active = activation above about 50%; inconclusive = about 30% to 50%; inactive = below about 30%; also: 0% is about no effect; the text of the record puts the active cut at 80%
Target sequence (Q9GZU1 whole entry, looked up): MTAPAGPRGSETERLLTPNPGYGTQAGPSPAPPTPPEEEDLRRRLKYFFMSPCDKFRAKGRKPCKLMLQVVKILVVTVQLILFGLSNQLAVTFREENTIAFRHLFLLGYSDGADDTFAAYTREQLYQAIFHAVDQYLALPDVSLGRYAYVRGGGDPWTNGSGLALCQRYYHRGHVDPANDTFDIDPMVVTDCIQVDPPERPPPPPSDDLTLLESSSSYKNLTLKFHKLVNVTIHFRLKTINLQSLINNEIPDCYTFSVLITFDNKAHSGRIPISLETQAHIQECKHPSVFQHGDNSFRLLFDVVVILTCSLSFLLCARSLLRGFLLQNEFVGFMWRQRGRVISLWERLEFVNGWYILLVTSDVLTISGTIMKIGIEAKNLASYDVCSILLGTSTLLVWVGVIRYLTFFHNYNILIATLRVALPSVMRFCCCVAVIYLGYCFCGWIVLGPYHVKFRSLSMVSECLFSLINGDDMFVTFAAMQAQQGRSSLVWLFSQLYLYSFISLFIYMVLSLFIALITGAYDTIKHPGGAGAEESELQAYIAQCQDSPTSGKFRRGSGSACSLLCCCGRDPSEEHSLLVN
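TRPML1-DL cells, Tet-induced overnight (~16 h, 37 degrees C), loaded 45-90 min at room temperature with Ca8 no-wash calcium dye plus quencher. FDSS fluorescence: 10 s baseline, compound pin-transfer, 110 s agonist read, then EC80 54-4 (4uM final) and 110 s antagonist read.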
Sfp inh = qHTS Assay for Inhibitors of Bacillus subtilis Sfp phosphopantetheinyl transferase (PPTase); Potency, µM, inactives show max response, negative = inhibition, actives largely listed as inhibitors; 4'-phosphopantetheinyl transferase ffp (Bacillus subtilis), Q9F4F7; hit rate 3.5% among 310,000; Biochemical Sfp PPTase activity, qHTS; active = well fitted inhibition curve with a large enough effect; inconclusive = small, poorly fitted or top-dose-only effect, or another doubt; inactive = no such curve, though single readings can be large or run the other way;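 also: the enzyme is Sfp with the accession as filed and its product quenches rhodamine fluorescence; potency is read from the fitted curve at half-maximal effect; 0% = enzyme reaction without inhibitor and -100% = no enzyme wells; top concentration of the series not given in the record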
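With Hepes-Na pH 7.6 buffer containing 10 mM MgCl2, Sfp (15 nM) modified BHQ-2-YbbR (12.5 uM) using rhodamine-CoA (5 uM). Two reads 30 minutes apart at 525/598 nm yielded each well's rate.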
Menin-MLL FL inh = qHTS Assay for Inhibitors Targeting the Menin-MLL Interaction in MLL Related Leukemias: Competition With Fluorescein Labeled MLL-derived Peptide; Fluorescence polarization, fluorescein-MLL peptide displacement from menin; FP activity change, % at 61.4 µM; 290,000 tested, under 10 active; AID 1766, 2009; inconclusive = falling polarisation curve, or a change in total fluorescence; inactive = total fluorescence flat and polarisation flat or rising; no compound was filed as active; the % refers to the polarisation; negative = inhibition;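 also: % of control where 0% means no effect; inhibitors lower the polarisation; unlabelled MLL peptide was the positive control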
TRPV1 potentiator = HTS Assay for Compounds that Act as Potentiators of the Vanilloid Receptor 1. Transient receptor potential cation channel subfamily V member 1 (Homo sapiens), Q8NER1. TRPV1-expressing cells, Fluo-8 calcium influx, capsaicin EC20 potentiation; host cell line not named in the record; control for the full effect not named in the record. potentiation, % at 8.33 µM. hit rate 0.02% among 320,000. AID 540277, 2011; active means potentiation above 80%; inconclusive means 30% to 80%; inactive means below 30%; also: 0% is about no effect
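TRPV1-expressing cells were cultured overnight at 35.5C and loaded with Fluo-8 calcium dye for 40 to 90 min at room temperature. After a 10 s baseline, compound was added and calcium influx was read kinetically for 3 min (ex 480/em 520 nm).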
ClpP mod = qHTS Assay for Activators of ClpP | hit rate 1.9% among 340,000 | purified B. subtilis ClpP, FRET peptide cleavage, 20 min | Potency, µM (series often up to 57.5 µM), for the others: at the highest dose activity change, negative = active | AID 651965, 2013; active = well fitted falling curve with a large enough effect; inconclusive = small, poorly fitted or top-dose-only effect; inactive = no such curve, though single readings can be large or run the other way; also: potency is read from the fitted curve at half-maximal effect; the source files actives as falling curves though it sought activators and does not explain the sign; nearly all actives have a fitted effect of over 65% in size; many hits overshoot -100%
Target sequence (P80244 whole entry, looked up): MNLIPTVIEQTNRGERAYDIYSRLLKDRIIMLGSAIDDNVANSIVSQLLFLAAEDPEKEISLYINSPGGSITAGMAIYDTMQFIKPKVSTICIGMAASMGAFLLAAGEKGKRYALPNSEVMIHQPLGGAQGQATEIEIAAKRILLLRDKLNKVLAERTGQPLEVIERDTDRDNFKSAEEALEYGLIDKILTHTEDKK
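ClpP 10 microg/mL final, pH 8 Tris/KCl buffer with BSA, glycerol, Tween-20; compound pinned in; FRET-FV substrate; RT 20 min; Ex320/Em430; ΔFRET vs ADEP 5.8 microM, DMSO, no enzyme.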
TRPML1 inh = qHTS for Inhibitors of the Human Mucolipin Transient Receptor Potential 1 (TRPML1); TRPML1-inducible cells, Ca2+ dye fluorescence, FDSS; stronger effect = lower value; inhibition of EC80 agonist-evoked calcium signal; activity change, negative = inhibition, % (no concentration beside the values); hit rate 0.02% among 390,000; AID 624415, 2012; in the data active means activity change below about -50%; inconclusive means about -30% to -50%; inactive means above about -30%;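 also: stimulus is agonist 54-4 at its EC80 concentration; % is scaled to controls: 0 for no effect and ±100 for the full control effect; compound concentration not given in the record; the text of the record puts the active cut at -80%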
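Tet-induced TRPML1-DL cells loaded with Ca8 no-wash calcium dye were read kinetically on FDSS. Compound addition was followed by EC80 agonist 54-4 (4 uM final); inhibition was read over 110 s.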
PINK1 expr mod = A Quantitative High throughput Screen to Identify Chemical Modulators of PINK1 Expression. AID 624263, 2012. Potency, µM (top dose mostly 76.6 µM), without a hit: top-dose activation (PINK1 increase), most hits filed as activators. PINK1 immunofluorescence, high-content cytometry, 24 h. hit rate 0.2% among 410,000; active = well fitted activation curve with a large enough effect; inconclusive = small, poorly fitted or top-dose-only effect; inactive = flat fitted curve, though single readings scatter; cell line not stated here;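 also: potency is read from the fitted curve at half-maximal effect; % of control where 0% means no effect; nearly all actives have a fitted effect of over 65% in size; a mitochondrial uncoupler was the plate control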
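Stable cell line, 250 cells/well, 12 h attachment; compounds pinned at 5 concentrations, 24 h; CCCP control. Fixed with nuclear dye, primary antibodies 12 h at 10 degrees C, secondary plus cell stain; laser-scanning cytometer read.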
The depositor's hits bear a star; & = joins results of further samples; [ ] = dose if it differs, or a comment.

Results for CCc1c(C)nc(SC/C=C/c2ccccc2)[nH]c1=O ?
TRPML1 ag: 1.9; Sfp inh: 19.3%; Menin-MLL FL inh: 7.5; TRPV1 potentiator: 5.4; ClpP mod: 0.1%; TRPML1 inh: 1.9; PINK1 expr mod: 9.9%

Results for CC(=O)N1CCc2ccc(S(=O)(=O)Nc3ccccc3Cl)cc21 ?
TRPML1 ag: 0.2; Sfp inh: 3.3%; Menin-MLL FL inh: 1.0; TRPV1 potentiator: 28.8; ClpP mod: -1.8%; TRPML1 inh: -1.6; PINK1 expr mod: 3.9%

What do the screens show for `COC(=O)C1=C(C)N(Cc2cccnc2)C(=O)/C1=C\c1cccs1`?
Sfp inh: -15.8%; Menin-MLL FL inh: 1.1; TRPV1 potentiator: inconclusive

Results for CCCOc1ccc(N2C(=O)CC(N3CCC(c4nc5ccccc5o4)CC3)C2=O)cc1 (stereo not given) ?
Sfp inh: 11.5%; Menin-MLL FL inh: 3.0; TRPV1 potentiator: -2.7

Results for CCCCOC(=O)c1ccc(NC(=O)c2cc3c(=O)n4cccc(C)c4nc3n2C)cc1 ?
TRPML1 ag: -0.7; ClpP mod: -1.0%; TRPML1 inh: -3.9; PINK1 expr mod: 2.6%

Results for O=C1CC[C@@H](C(=O)N2CSC[C@H]2C(=O)O)N1 ?
TRPML1 ag: 0.7; Sfp inh: 18.3%&-0.5%; Menin-MLL FL inh: -2.6&-2.5; TRPV1 potentiator: 5.2; ClpP mod: 2.0%; TRPML1 inh: 6.1; PINK1 expr mod: 0.9%

Results for COc1ccc(CC(=O)Nc2c3c(nn2-c2cccc(C)c2C)CS(=O)(=O)C3)cc1 ?
TRPML1 ag: -0.5; Sfp inh: 13.3%; Menin-MLL FL inh: 0.7; TRPV1 potentiator: 10.6; ClpP mod: 1.0%; TRPML1 inh: -2.9; PINK1 expr mod: 1.3%[38.3 µM]

What do the screens show for `Cc1csc(NC(C)c2nc3cc(Cl)c(N4CCCCC4)cc3n2CCOCCO)n1` (stereo not given)?
TRPML1 ag: -0.6; ClpP mod: 2.7%; TRPML1 inh: -11.8; PINK1 expr mod: 7.5%

Results for Cc1ccc(S(=O)(=O)N2C[C@@H](C)[C@]3(C2)[C@H](O)[C@H](OC(=O)Nc2cccs2)C[C@H]2C(=O)N(c4ccccc4)C(=O)[C@H]23)cc1 ?
TRPML1 ag: -0.2; ClpP mod: 0.4%; TRPML1 inh: -1.3; PINK1 expr mod: -1.0%

How did COC(=O)c1ccc(COc2cccc3c2CCN(Cc2cccc(C)c2)C3=O)o1 do in these assays?
TRPML1 ag: 2.8; Sfp inh: 0.3%; Menin-MLL FL inh: 0.1; TRPV1 potentiator: 1.5; ClpP mod: 1.0%; TRPML1 inh: 16.4; PINK1 expr mod: -0.1%

Results for Cc1ccc(/C=N\NC(=O)c2cc([N+](=O)[O-])cc([N+](=O)[O-])c2)o1 ?
TRPML1 ag: -0.5; Sfp inh: -6.2%; Menin-MLL FL inh: 0.8; TRPV1 potentiator: 12.5; ClpP mod: 0.7%; TRPML1 inh: -11.7; PINK1 expr mod: 0.9%

Results for CCOc1cccc(C(=O)Nc2ccc3ccccc3c2)c1 ?
TRPML1 ag: 1.8; Sfp inh: 7.8%; Menin-MLL FL inh: 2.0; TRPV1 potentiator: 9.2; TRPML1 inh: 20.7; PINK1 expr mod: -0.7%

How did CCN(CC)c1ccc2c(Cl)c(Br)c(=O)oc2c1 do in these assays?
TRPML1 ag: 11.2; Sfp inh: 56.2µM*; Menin-MLL FL inh: inconclusive; ClpP mod: -3.2%; TRPML1 inh: 37.0; PINK1 expr mod: -1.5%

Results for COc1ccccc1N1CCN(C(=O)c2cccc3c(=O)c(C)c(-c4ccccc4)oc23)CC1 ?
TRPML1 ag: 9.0; Sfp inh: -3.4%; Menin-MLL FL inh: 2.3; TRPV1 potentiator: -5.0; ClpP mod: -0.5%; TRPML1 inh: 7.6; PINK1 expr mod: -0.6%

What do the screens show for `COc1ccc(NC(=O)c2ccc(NC(=O)CN(C)CC(=O)Nc3c(C)cccc3C)cc2)cc1`?
TRPML1 ag: 0.3; Sfp inh: 11.1%; Menin-MLL FL inh: -3.1; TRPV1 potentiator: -5.4; TRPML1 inh: -12.4; PINK1 expr mod: 0.4%

What do the screens show for `CC(=O)Nc1cccc(-n2c(=O)n(Cc3ccccc3)c(=O)c3[nH]cnc32)c1`?
TRPML1 ag: 2.4; Sfp inh: 9.0%; Menin-MLL FL inh: -7.4; TRPV1 potentiator: 28.8; ClpP mod: -5.5%; TRPML1 inh: -13.9; PINK1 expr mod: -1.8%

How did COc1ccc(CN(C(=O)c2ccc(OCC(C)C)cc2)C2CCS(=O)(=O)C2)cc1 (stereo not given) do in these assays?
TRPML1 ag: -0.8; ClpP mod: -4.0%; TRPML1 inh: 5.8; PINK1 expr mod: -0.9%

How did CC1(C)CC(=O)N(c2ccc(Cl)cc2Cl)C(=O)C1 do in these assays?
TRPML1 ag: -1.0; Sfp inh: 12.9%; Menin-MLL FL inh: 0.2; TRPV1 potentiator: -6.8; ClpP mod: -2.0%; TRPML1 inh: 29.6; PINK1 expr mod: 2.3%

How did CCc1ccc(C(=O)N2CCCC2)s1 do in these assays?
TRPML1 ag: 0.4; Sfp inh: 0.5%; Menin-MLL FL inh: -0.8; TRPV1 potentiator: -2.4; ClpP mod: -1.2%; TRPML1 inh: -9.6; PINK1 expr mod: 9.8%[38.3 µM]

How did Cc1ncn(-c2ccccc2)c1-c1ccccc1 do in these assays?
TRPML1 ag: 0.4; TRPV1 potentiator: -17.4; ClpP mod: 0.1%; TRPML1 inh: 8.7; PINK1 expr mod: 2.1%

Results for O=S(=O)(Nc1ccon1)c1ccc(Br)cc1 ?
TRPML1 ag: 0.1; Sfp inh: 26.0%; TRPV1 potentiator: -0.6; ClpP mod: 0.5%; TRPML1 inh: -1.2; PINK1 expr mod: -0.6%

Results for Cc1ccc2cc(C(c3nnnn3C3CCCC3)N3CCN(c4ccccc4)CC3)c(=O)[nH]c2c1 (stereo not given) ?
TRPML1 ag: 0.7; Sfp inh: inconclusive; Menin-MLL FL inh: -0.9; TRPV1 potentiator: -6.0; ClpP mod: -6.7%; TRPML1 inh: -4.9

What do the screens show for `Cc1nc2c(-c3ccc(F)cc3)c(C)nn2c(C)c1CCC(=O)NCc1ccco1`?
TRPML1 ag: -0.4; Sfp inh: -2.4%; Menin-MLL FL inh: 1.4; TRPV1 potentiator: 0.9; ClpP mod: 4.5%; TRPML1 inh: -11.6; PINK1 expr mod: 14.8%

How did COc1ccc(/C=C(/C#N)c2cccnc2)cc1OC do in these assays?
TRPML1 ag: 1.7; Sfp inh: 12.1%; Menin-MLL FL inh: 0.0; TRPV1 potentiator: 8.0; ClpP mod: -0.4%; TRPML1 inh: 58.0; PINK1 expr mod: 2.4%

How did O=C(NCC1CCCCC1)c1ccc(F)c(S(=O)(=O)N2CCOCC2)c1 do in these assays?
TRPML1 ag: 1.0; TRPV1 potentiator: -18.2; ClpP mod: -0.4%; TRPML1 inh: 0.3; PINK1 expr mod: 0.5%

What do the screens show for `COc1cccc(C#Cc2c(CO)[nH]c3ccccc23)c1`?
TRPML1 ag: -0.7; TRPV1 potentiator: 4.4; ClpP mod: -0.6%; TRPML1 inh: -8.6; PINK1 expr mod: 1.1%

Results for C/C(=N\O)c1ccco1 ?
TRPML1 ag: -0.8; TRPV1 potentiator: 12.4; ClpP mod: 0.8%; TRPML1 inh: 35.3; PINK1 expr mod: -0.4%

What do the screens show for `CCOc1ccccc1NC(=O)Cn1c(=O)n(-c2cccc(C)c2)c(=O)c2c1c1cc(OC)ccc1n2C`?
TRPML1 ag: -0.3; ClpP mod: 4.2%; TRPML1 inh: -4.2; PINK1 expr mod: 0.8%

What do the screens show for `COc1ccc(OC)c(/C=C/C(=O)OCC(=O)NCc2ccccc2)c1`?
TRPML1 ag: 1.8; ClpP mod: 68.6%; TRPML1 inh: 3.1; PINK1 expr mod: 4.3%

How did COc1ccc(NS(=O)(=O)c2cccc(C(=O)N(C)Cc3cccs3)c2)cc1 do in these assays?
TRPML1 ag: -0.3; TRPV1 potentiator: 16.1; ClpP mod: 1.9%; TRPML1 inh: -11.1; PINK1 expr mod: -0.3%

How did Cc1ccccc1OCC(=O)Nc1nnc(C2CCCCC2)s1 do in these assays?
TRPML1 ag: 0.9; Sfp inh: -1.2%; Menin-MLL FL inh: 5.1; TRPV1 potentiator: 13.8; ClpP mod: -1.1%; TRPML1 inh: 6.5; PINK1 expr mod: inconclusive

How did O=[N+]([O-])c1ccc(N/N=C/c2cn(Cc3ccc(F)cc3)c3ccccc23)nc1 do in these assays?
TRPML1 ag: -0.6; Sfp inh: inconclusive; Menin-MLL FL inh: 21.7; TRPV1 potentiator: 3.0; ClpP mod: -1.3%; TRPML1 inh: -8.8; PINK1 expr mod: 2.6%

Results for CC(C)OCCCNC(=O)Cn1c(-c2cccs2)cc2cc(F)ccc21 ?
TRPML1 ag: -0.2; ClpP mod: 4.1%; TRPML1 inh: 18.7; PINK1 expr mod: 5.4%

Results for O=c1[nH][nH]c(-c2ccccc2O)c1C(C[N+](=O)[O-])c1ccc(Br)cc1 (stereo not given) ?
TRPML1 ag: -0.3; Sfp inh: -6.7%; Menin-MLL FL inh: -8.8; TRPV1 potentiator: inconclusive; ClpP mod: -0.8%; TRPML1 inh: -10.5; PINK1 expr mod: -2.2%

How did C=CCNC(=S)Nc1cccc(NC(=S)NCC=C)c1 do in these assays?
TRPML1 ag: 0.8; Sfp inh: 4.9%; Menin-MLL FL inh: 0.1; TRPV1 potentiator: -10.1; ClpP mod: 1.5%; TRPML1 inh: 8.6; PINK1 expr mod: 0.2%

Compounds were not picked by outcome; any-hit rate near 4.4%.
